FGF22 binding – shifts melting point of recombinant human FGF22. recombinant FGF22 thermal shift, SYPRO orange fluorescence; percent of sucrose octasulfate shift, DMSO zero. calls only at 9.99 µM. hit rate 1.5% among 340,000;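 active = melting point raised past a set limit in the mean and every replicate; inconclusive = no clear call; three in four hits are not shown here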
Target sequence (Q9HCT0 whole entry, looked up): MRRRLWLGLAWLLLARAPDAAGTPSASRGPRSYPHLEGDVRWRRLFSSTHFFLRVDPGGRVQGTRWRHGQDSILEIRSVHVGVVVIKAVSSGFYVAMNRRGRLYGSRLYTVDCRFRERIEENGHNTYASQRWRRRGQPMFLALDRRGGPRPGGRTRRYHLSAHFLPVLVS
Ecoli rRNA inh – inhibits bacterial ribosomal RNA function over humanized ribosomes | hit rate 1.6% among 350,000 | AID 720706 | E. coli WT GFP vs humanized-ribosome RFP mutants, fluorescence, 24 h; stronger effect = lower value; DMSO median 0, no signal -100 | GFP signal change (wild-type ribosome), % (no concentration beside the values);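 active = significant combined selectivity score with lowered wild-type GFP, culture density cut under 30%, mutant RFP and density less affected; inactive = any of these conditions unmet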; note: one replicate is shown; some compounds called inactive have numbers as strong as hits
UCH37 DUB inh – human UCH37 deubiquitinating enzyme inhibition; hit rate 0.33% among 330,000; inhibition, % (concentration not given with the values); Q9Y5K5; purified proteasome/UCH37, Ub-AMC cleavage fluorescence;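 active = mean of two replicates above 20%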;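 note: 0% = compound-free wells with enzyme and 100% = wells lacking proteasome; stock transfer was 100 nL into about 20 µL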
Target sequence (Q9Y5K5 whole entry, looked up): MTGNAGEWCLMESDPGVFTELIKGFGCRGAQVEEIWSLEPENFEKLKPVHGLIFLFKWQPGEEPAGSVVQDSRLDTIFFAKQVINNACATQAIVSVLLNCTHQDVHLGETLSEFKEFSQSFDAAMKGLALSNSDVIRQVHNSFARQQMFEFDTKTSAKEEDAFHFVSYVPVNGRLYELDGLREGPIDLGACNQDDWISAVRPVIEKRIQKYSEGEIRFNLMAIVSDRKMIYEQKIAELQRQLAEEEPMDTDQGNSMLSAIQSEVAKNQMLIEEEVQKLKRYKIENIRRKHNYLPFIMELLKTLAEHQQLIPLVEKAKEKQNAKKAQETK
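Material: human UCH37 enzyme supplied as purified proteasome complex. Measure: % inhibition of Ub-AMC cleavage fluorescence. Medium: pH 7.4 Tris-HCl (50 mM) with ovalbumin, ATP-MgCl2, DTT. Times: 30 min preincubation with enzyme, 25 min cleavage at room temperature. Detection: AMC fluorescence intensity at 355/460 nm.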
E coli growth – E. coli growth inhibition. Escherichia coli growth, OD600, 23 h; stronger effect = lower value. OD600 absorbance (concentration not given with the values). hit rate 0.21% among 330,000. AID 1053175;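 active = OD600 absorbance below the run mean of sample wells minus 3.6 SD, in any replicate, cut at about 0.56 in these data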;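 note: stock transfer was 300 nL into about 60 µL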
T cruzi repl – blocks replication of Trypanosoma cruzi; AID 1885; hit rate 1.4% among 300,000; T. cruzi beta-gal in NIH3T3, luminescence, 90 h; inhibition, % (no concentration beside the values);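 active = mean inhibition across valid replicates above about 55%, limit read from the data; inconclusive = mean below that limit but half or more replicates reach it; inactive = mean below it, under half of replicates reach it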;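 note: signal also drops with host cell toxicity which is not excluded here; 0% = plate median of DMSO wells and 100% = zero luminescence signal; higher percent means less beta-gal luminescence so fewer parasites; stock transfer was 50 nL into about 50 µL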
AF4-AF9 inh – blocks AF4 peptide binding to human AF9 | P42568 | AlphaScreen, biotin-AF4 peptide binding to FLAG-AF9 | inhibition, % at 10 µM | hit rate 0.47% among 350,000 | AID 651704;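 active = every replicate reaching a set inhibition limit, whatever the replicate mean, cut at about 25% in these data; inconclusive = mean inhibition reaches that limit but some replicates miss it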;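 note: 0% = plate neutral control median and 100% = total signal loss; the record names both 10 and 1 µM as test concentration; the first replicate is given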
Target sequence (P42568 whole entry, looked up): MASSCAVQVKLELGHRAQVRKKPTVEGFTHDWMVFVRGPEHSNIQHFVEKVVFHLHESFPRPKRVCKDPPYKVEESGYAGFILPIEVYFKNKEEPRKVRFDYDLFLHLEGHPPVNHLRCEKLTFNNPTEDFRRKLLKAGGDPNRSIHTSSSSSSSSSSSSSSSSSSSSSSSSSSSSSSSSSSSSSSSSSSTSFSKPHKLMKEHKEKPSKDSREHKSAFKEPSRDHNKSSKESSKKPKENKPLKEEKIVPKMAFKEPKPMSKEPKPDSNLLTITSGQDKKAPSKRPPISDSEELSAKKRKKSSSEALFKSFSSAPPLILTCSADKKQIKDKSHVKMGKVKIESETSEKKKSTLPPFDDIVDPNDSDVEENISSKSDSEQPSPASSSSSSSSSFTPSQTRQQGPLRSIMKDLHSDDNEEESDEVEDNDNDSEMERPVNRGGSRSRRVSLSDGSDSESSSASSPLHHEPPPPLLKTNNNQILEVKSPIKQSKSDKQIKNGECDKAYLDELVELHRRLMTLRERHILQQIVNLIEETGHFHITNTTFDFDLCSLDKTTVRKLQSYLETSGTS
Beta apoptosis – beta cell apoptosis inhibition; INS-1E cytokine-induced death, ATP luminescence, 48 h; percent of positive-control rescue, neutral wells zero; protection from apoptosis, % (concentration not given with the values); hit rate 0.8% among 300,000;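 active = all replicates at 75% or more, or half of them and the mean; inconclusive = half reach 75% but not the mean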;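 note: 0% = cytokine-treated negative control wells and 100% = positive control rescue; higher means more ATP so stronger rescue from cytokine killing; wells of about 40 µL received 100 nL stock; the first replicate is given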
Bfl-1 A1 inh – inhibitors of the anti-apoptotic protein A1, read as caspase activation | MEF A1-2A-BIM cells, Caspase-Glo 3/7 luminescence, 3 h; percent of clofoctol response, vehicle zero | caspase activation, % (test concentration not listed) | hit rate 0.066% among 330,000;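 active = over half of replicate activation scores above 10%, or exactly half above 10 with the replicate mean above 10; inconclusive = replicate mean below 10 yet half the replicates above 10; inactive = over half of replicates below 10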;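 note: wells of about 30 µL received 50 nL stock; many hits fall short of the cut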
Ecoli rRNA inh OD600 – also measured in Ecoli rRNA inh; calls as there; OD600 change, %; measured here: OD600 growth;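 optical density of the mix in the first replicate; 0 = DMSO median and -100 = no signal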
Ecoli rRNA inh RFP – second read-out of Ecoli rRNA inh, no call of its own (marks repeat the call); RFP signal change, %; measured here: RFP humanized mutant strains;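 first replicate; 0 = DMSO median and -100 = no signal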
* marks the source's active call; other numbers are inactive results. A portion of the library. The share of hits here may be higher or lower than overall.

COc1ccccc1C(=O)COC(=O)CNC(=O)c1ccc(Br)o1 was read as FGF22 binding inactive, Ecoli rRNA inh -5, UCH37 DUB inh -1.5, E coli growth 0.69, T cruzi repl -10, AF4-AF9 inh 6.2, Beta apoptosis -6, Bfl-1 A1 inh 0.0, Ecoli rRNA inh OD600 -9 and Ecoli rRNA inh RFP -0.7.
For CCC(=O)Nc1cccc(C2=NOC3(C2)C[C@@H](C(N)=O)N(C(=O)COc2ccc(Cl)cc2)C3)c1 (some centres undefined) the results were FGF22 binding inactive, Ecoli rRNA inh 3, UCH37 DUB inh 0.4, T cruzi repl -1, AF4-AF9 inh -0.4, Beta apoptosis 0, Bfl-1 A1 inh -1.4, Ecoli rRNA inh OD600 6 and Ecoli rRNA inh RFP 0.1.
`Cc1noc(C)c1S(=O)(=O)N1CCC(C(=O)N2CCC(N3CCCCC3)CC2)CC1` gave FGF22 binding inactive, Ecoli rRNA inh 2, UCH37 DUB inh 2.9, E coli growth 0.77, T cruzi repl 10, AF4-AF9 inh -3.3, Beta apoptosis -4, Bfl-1 A1 inh -0.4, Ecoli rRNA inh OD600 2 and Ecoli rRNA inh RFP -3.7.
For CCSc1ccc([C@@H]2[C@@H]3C(=O)N(CC)C(=O)[C@@H]3[C@]3(C(=O)OC)CCCCN23)cc1 the results were FGF22 binding inactive, Ecoli rRNA inh -24, UCH37 DUB inh -0.4, T cruzi repl 14, AF4-AF9 inh 2.7, Beta apoptosis -2, Bfl-1 A1 inh 1.3, Ecoli rRNA inh OD600 -41 and Ecoli rRNA inh RFP 26.
`COc1cccc(C(=O)OCC(=O)Nc2cc(C)on2)c1OC` gave Ecoli rRNA inh 4, UCH37 DUB inh 4.5, E coli growth 0.72, AF4-AF9 inh 1.9, Beta apoptosis -3, Bfl-1 A1 inh 1.3, Ecoli rRNA inh OD600 11 and Ecoli rRNA inh RFP -2.7.
c1ccc(-c2cnc(-c3ccccc3)nc2)cc1 was read as UCH37 DUB inh 4.9, E coli growth 0.68, T cruzi repl -4, Beta apoptosis 3 and Bfl-1 A1 inh -7.0.
CCOc1cccc(/C(O)=C2/C(=O)C(=O)N(CCN3CCOCC3)C2c2cccnc2)c1 (centres undefined) was read as UCH37 DUB inh 7.3, E coli growth 0.72, T cruzi repl -7, Beta apoptosis -9 and Bfl-1 A1 inh 0.7.
`CC(NC(=O)c1cccc(OC2CCN(C(=O)C3CC3)CC2)c1)c1ccc(F)cc1` (centres undefined) gave FGF22 binding inactive, Ecoli rRNA inh -12, UCH37 DUB inh 3.5, E coli growth 0.71, T cruzi repl 1, AF4-AF9 inh 0.9, Beta apoptosis 0, Bfl-1 A1 inh 0.4, Ecoli rRNA inh OD600 -1 and Ecoli rRNA inh RFP -2.5.
Screening O=C(NCc1ccccc1)c1ccccc1OCC(=O)N1CCCCC1 returned UCH37 DUB inh 1.4, E coli growth 0.66, T cruzi repl -3, Beta apoptosis -10 and Bfl-1 A1 inh 2.5.
For O=S(=O)(Nc1ccncc1)c1ccccc1 the results were UCH37 DUB inh 5.0, E coli growth 0.66, T cruzi repl -14, Beta apoptosis -4 and Bfl-1 A1 inh 0.1.
`O=C(Nc1ccccc1)Nc1ccc(F)c([N+](=O)[O-])c1` gave UCH37 DUB inh 3.1, E coli growth 0.57, T cruzi repl 4, Beta apoptosis 29 and Bfl-1 A1 inh -3.1.
`CCS(=O)(=O)Nc1ccc(C2=NN(C(=S)Nc3ccccc3)C(c3ccco3)C2)cc1` (centres undefined) gave UCH37 DUB inh -3.6, E coli growth 0.68, T cruzi repl 2, Beta apoptosis 0 and Bfl-1 A1 inh 2.0.
`CC(=O)Nc1ccccc1OCC(=O)NC(C)c1ccc(F)cc1` (centres undefined) gave FGF22 binding inactive, UCH37 DUB inh 0.4, E coli growth 0.62, T cruzi repl -9, AF4-AF9 inh 0.1, Beta apoptosis 4 and Bfl-1 A1 inh -0.4.
For CCCCOc1ccc(CNn2c(C)nc3ccccc3c2=O)cc1 the results were UCH37 DUB inh -0.3, E coli growth 0.72, T cruzi repl 16 and Bfl-1 A1 inh -0.4.
Screening COc1ccc(NC(=O)CCN2CCCCCC2)c(OC)c1 returned UCH37 DUB inh 2.6, E coli growth 0.7, T cruzi repl 3 and Bfl-1 A1 inh -0.8.
Cc1ccccc1-c1nc(CN2CCC(C(=O)NCCCN3CCCC3)CC2)c(C)o1 was read as Ecoli rRNA inh -4, UCH37 DUB inh 1.5, E coli growth 0.66, T cruzi repl 39, Beta apoptosis 2, Bfl-1 A1 inh 0.4, Ecoli rRNA inh OD600 12 and Ecoli rRNA inh RFP 8.3.
Cn1c(=O)c2cc(S(=O)(=O)NCCC(=O)NCc3ccccc3Cl)ccc2n(C)c1=O was read as UCH37 DUB inh 4.3, E coli growth 0.7, T cruzi repl 12, Beta apoptosis 2 and Bfl-1 A1 inh 0.6.
Screening O=C(/C=C/c1c(Cl)nc2ccccn12)N1CCN(c2ccc(F)cc2)CC1 returned FGF22 binding inactive, Ecoli rRNA inh -2, UCH37 DUB inh 2.9, E coli growth 0.7, T cruzi repl 2, AF4-AF9 inh 1.0, Beta apoptosis 4, Bfl-1 A1 inh -0.2, Ecoli rRNA inh OD600 14 and Ecoli rRNA inh RFP -0.3.
`Cc1ccc(NC(=O)/C(C#N)=C/c2ccccc2C(F)(F)F)cc1` gave FGF22 binding inactive, Ecoli rRNA inh 1, UCH37 DUB inh 5.5, E coli growth 0.7, T cruzi repl 0, AF4-AF9 inh 1.3, Beta apoptosis -4, Bfl-1 A1 inh 0.6, Ecoli rRNA inh OD600 -2 and Ecoli rRNA inh RFP 1.9.
`CCS(=O)(=O)c1ccc(C=NNc2nc3ccccc3o2)cc1` gave FGF22 binding inactive, Ecoli rRNA inh -6, UCH37 DUB inh 10, E coli growth 0.65, AF4-AF9 inh -0.5, Ecoli rRNA inh OD600 -2 and Ecoli rRNA inh RFP 2.1.
For CCOc1ccc(CCNS(=O)(=O)c2c(C)n[nH]c2C)cc1OCC the results were UCH37 DUB inh 5.1, E coli growth 0.75, T cruzi repl 0, Beta apoptosis -6 and Bfl-1 A1 inh 0.3.
`COc1ccc(NC(=O)C2CCN(C(=O)Cc3ccccc3)CC2)cc1OC` gave Ecoli rRNA inh 14, UCH37 DUB inh 2.5, E coli growth 0.7, T cruzi repl 1, AF4-AF9 inh 0.3, Beta apoptosis 0, Bfl-1 A1 inh -0.7, Ecoli rRNA inh OD600 -1 and Ecoli rRNA inh RFP 1.0.
Cc1ccc(-n2nnnc2SCC(=O)NC2CCCc3ccccc32)c(C)c1 (centres undefined) was read as UCH37 DUB inh -1.6, E coli growth 0.68, T cruzi repl 28, Beta apoptosis -4 and Bfl-1 A1 inh 0.3.
For C/C(=N\NC(=O)CN1CCN(Cc2ccccc2)CC1)c1ccncc1 the results were FGF22 binding inactive, Ecoli rRNA inh 13, T cruzi repl -1, AF4-AF9 inh -0.8, Beta apoptosis -4, Bfl-1 A1 inh 0.8, Ecoli rRNA inh OD600 16 and Ecoli rRNA inh RFP -0.9.
Screening COc1ccc(N/C(N)=N/c2nc(C)c(Cc3ccccc3)c(=O)[nH]2)cc1 returned FGF22 binding inactive, Ecoli rRNA inh 14, UCH37 DUB inh -0.8, E coli growth 0.66, T cruzi repl 4, AF4-AF9 inh -4.4, Bfl-1 A1 inh -0.7, Ecoli rRNA inh OD600 9 and Ecoli rRNA inh RFP 0.5.
For CCN(CC)CCNC(=O)COc1ccc(Cl)cc1Cl the results were FGF22 binding inactive, Ecoli rRNA inh 27, UCH37 DUB inh 2.6, E coli growth 0.62, T cruzi repl 14, AF4-AF9 inh 6.8, Beta apoptosis -4, Bfl-1 A1 inh 1.0, Ecoli rRNA inh OD600 9 and Ecoli rRNA inh RFP 3.3.
Fc1ccc(-n2c(Cc3ccccc3)nnc2SCc2nc(-c3cccs3)no2)cc1 was read as UCH37 DUB inh 4.8, E coli growth 0.67, T cruzi repl 26, Beta apoptosis -8 and Bfl-1 A1 inh -0.2.
Screening C=CCn1c(C(CCCC)CC(C)O)n[nH]c1=S (centres undefined) returned FGF22 binding inactive, Ecoli rRNA inh 14, UCH37 DUB inh 3.0, E coli growth 0.71, T cruzi repl -6, AF4-AF9 inh -2.3, Beta apoptosis -5, Bfl-1 A1 inh 0.2, Ecoli rRNA inh OD600 17 and Ecoli rRNA inh RFP 9.3.
Screening Cn1/c(=N\NC(=O)c2ccccc2Cl)sc2ccccc21 returned FGF22 binding inactive, Ecoli rRNA inh 2, T cruzi repl 13, AF4-AF9 inh 3.1, Beta apoptosis -10, Bfl-1 A1 inh -0.2, Ecoli rRNA inh OD600 -3 and Ecoli rRNA inh RFP 0.5.
COCCNC(=S)N1CCN(S(C)(=O)=O)CC1 was read as FGF22 binding inactive, Ecoli rRNA inh 14, UCH37 DUB inh 2.3, E coli growth 0.7, T cruzi repl -4, AF4-AF9 inh -2.9, Beta apoptosis -9, Bfl-1 A1 inh -0.8, Ecoli rRNA inh OD600 10 and Ecoli rRNA inh RFP -2.3.
Screening CCN(CC)CCOC(=O)c1ccc(NC(=O)CCCN2C(=O)S/C(=C/c3ccc(OC)cc3)C2=S)cc1 returned UCH37 DUB inh 9.8, E coli growth 0.68, T cruzi repl inconclusive, Beta apoptosis -2 and Bfl-1 A1 inh -1.4.
OC(CNCc1ccccc1)(c1ccc(F)cc1)c1ccc(F)cc1 was read as UCH37 DUB inh 2.5, E coli growth 0.72, T cruzi repl 0, Beta apoptosis -7 and Bfl-1 A1 inh 1.0.
`C#CCOCCOCCOCCNc1nc(N2CCN(C(=O)CCCCCCCCCCNC(=O)Cn3cc(C[C@@H](C)O)nn3)CC2)nc(N2CCN(C(=O)CCCCCCCCCCNC(=O)Cn3cc(C[C@@H](C)O)nn3)CC2)n1` gave FGF22 binding inactive, Ecoli rRNA inh 14, UCH37 DUB inh 7.4, AF4-AF9 inh 0.8, Beta apoptosis 22, Bfl-1 A1 inh 0.5, Ecoli rRNA inh OD600 9 and Ecoli rRNA inh RFP 22.
CCC(=O)Nc1ccc(NC(=O)c2ccc3ccccc3c2)cc1 was read as FGF22 binding inactive, Ecoli rRNA inh 0, UCH37 DUB inh -67, E coli growth 0.67, T cruzi repl 7, AF4-AF9 inh 0.0, Beta apoptosis 4, Bfl-1 A1 inh -0.3, Ecoli rRNA inh OD600 10 and Ecoli rRNA inh RFP 0.2.
Screening CCOc1ccccc1NC(=O)CSc1nc(N)c(C#N)cc1C#N returned UCH37 DUB inh -41, E coli growth 0.83, T cruzi repl -11, Beta apoptosis -8 and Bfl-1 A1 inh 0.9.
Cc1cc(C)c(C)c(S(=O)(=O)Nc2cccc(S(=O)(=O)Nc3ccccc3C(=O)O)c2)c1C was read as Ecoli rRNA inh -3, UCH37 DUB inh -1.1, E coli growth 0.66, AF4-AF9 inh -1.7, Beta apoptosis -9, Bfl-1 A1 inh -1.0, Ecoli rRNA inh OD600 1 and Ecoli rRNA inh RFP 5.9.
